Assay outcomes from PubChem.
Pol kappa inh – inhibitors of human DNA polymerase kappa | Potency, µM (doses to about 107 µM), for inactives: at the highest dose activity, negative = inhibition, hits mostly inhibitors | Q9UBT6 | purified Pol kappa, fluorescent DNA synthesis assay, 10 min | AID 588579 | 400,000 tested, 0.53% active; further: on the % scale 0 is the no-effect control and ±100 the full control effect
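10 nM Pol kappa preincubated 15 min at room temperature with compounds, then reaction started with substrate at 50 nM final. Fluorescence read kinetically at 0 and 10 min; buffer-only wells served as negative control.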
POLI inh – inhibitors of human DNA polymerase iota. Pol iota fluorescent replication assay, 10 min. Potency, µM (series often up to 115 µM), without a hit: top-dose activity, negative = inhibition, actives largely listed as inhibitors. 390,000 tested, 1% active. AID 588590
Target sequence (Q9UNA4 whole entry, looked up): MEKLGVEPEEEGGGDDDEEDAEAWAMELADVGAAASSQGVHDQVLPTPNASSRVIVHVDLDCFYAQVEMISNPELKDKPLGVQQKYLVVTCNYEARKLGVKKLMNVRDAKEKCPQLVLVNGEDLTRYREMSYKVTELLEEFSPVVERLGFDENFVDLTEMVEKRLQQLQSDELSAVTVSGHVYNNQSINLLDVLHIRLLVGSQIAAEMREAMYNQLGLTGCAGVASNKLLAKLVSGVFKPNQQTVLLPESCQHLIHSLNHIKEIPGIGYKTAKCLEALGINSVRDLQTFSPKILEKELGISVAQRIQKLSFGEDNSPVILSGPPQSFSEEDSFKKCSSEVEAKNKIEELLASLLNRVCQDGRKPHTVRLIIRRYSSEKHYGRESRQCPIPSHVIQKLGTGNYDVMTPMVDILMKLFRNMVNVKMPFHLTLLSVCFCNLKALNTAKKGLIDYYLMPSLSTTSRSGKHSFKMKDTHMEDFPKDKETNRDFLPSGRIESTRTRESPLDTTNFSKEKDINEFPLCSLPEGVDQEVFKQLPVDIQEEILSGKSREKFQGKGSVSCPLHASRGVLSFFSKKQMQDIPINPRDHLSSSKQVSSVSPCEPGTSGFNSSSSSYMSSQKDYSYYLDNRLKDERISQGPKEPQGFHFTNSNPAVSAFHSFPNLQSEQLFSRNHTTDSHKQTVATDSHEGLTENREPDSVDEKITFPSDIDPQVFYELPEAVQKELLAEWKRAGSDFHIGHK
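Fluorescent replication assay read twice, at 0 min and 10 min after adding 50 nM (final) substrate. Enzyme (10 nM) and compounds were first incubated 15 min at room temperature; enzyme-free buffer wells were negative controls.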
BLM inh – Bloom syndrome helicase (human) inhibition | P54132 | recombinant BLM DNA unwinding, fluorescence dequenching | Potency, µM (doses to about 56.1 µM), for inactives: at the top dose activity change, negative = inhibition, most hits filed as inhibitors | 350,000 tested, 0.2% active | AID 2528;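 further: plate controls were vehicle for no effect and no enzyme for full effect; nearly all actives have a fitted effect of over 35% in size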
G9a inh – inhibitors of human histone lysine methyltransferase G9a; Q96KQ7; G9a H3K9 monomethylation, AlphaScreen, 2 h; Potency, µM (doses to about 102 µM), for inactives: at the top dose activity, negative = inhibition, actives largely listed as inhibitors; 350,000 tested, 8.8% active; AID 504332; further: on the % scale 0 is the no-effect control and ±100 the full control effect; nearly all actives have a fitted effect of over 75% in size
Target sequence (Q96KQ7 913-1193 limits assumed): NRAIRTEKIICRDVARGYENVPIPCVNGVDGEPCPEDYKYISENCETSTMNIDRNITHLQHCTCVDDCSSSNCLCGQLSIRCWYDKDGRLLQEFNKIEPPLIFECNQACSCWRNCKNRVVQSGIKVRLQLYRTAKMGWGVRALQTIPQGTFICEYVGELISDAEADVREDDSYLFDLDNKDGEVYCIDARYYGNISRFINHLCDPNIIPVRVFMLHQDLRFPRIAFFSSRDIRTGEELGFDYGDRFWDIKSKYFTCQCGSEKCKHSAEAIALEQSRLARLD
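G9a (20 nM) was preincubated 15 min with compound, then reacted 2 h at room temperature with 500 nM biotin-H3K9 peptide and 20 µM SAM. Monomethyl-H3K9 detected by AlphaScreen using anti-H3K9me1 antibody.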
Apoferritin bind – candidate novel general anesthetic via apoferritin binding. Potency, µM (doses to about 77.5 µM), for inactives: top-dose activity change, negative = displacement, actives largely listed as inhibitors. 350,000 tested, 0.074% active. P02791. AID 485281. apoferritin/1-aminoanthracene competitive binding, fluorescence; further: on the % scale 0 is the no-effect control and ±100 the full control effect; nearly all actives have a fitted effect of over 20% in size
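Horse-spleen apoferritin (10 uM) in 50% saturated 1-aminoanthracene in PBS was incubated 10 min at room temperature with compound. Fluorescence (ex 380, em 535 nm) was normalized to free and bound 1-AMA, with concentration-response fitted by a four-parameter Hill equation.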
Starred values were filed as active, the others as inactive; ? = inconclusive; . = not tested or not shown; & = joins results of further samples; [ ] = dose if it differs, or a comment. The call rests on the fitted dose curve; in most records, active means well fitted curve in the direction sought with a large enough effect; inconclusive means small, poorly fitted or top-dose-only effect, or another doubt; inactive means no such curve, though single readings can be large; an effect the other way counts as inactive or inconclusive. Potency means the concentration at half of the fitted maximal effect. The list is partial, so the mix of outcomes need not match the whole.

SMILES	Pol kappa inh	POLI inh	BLM inh	G9a inh	Apoferritin bind
CN(C)C1(CNC(=O)COc2ccc(C(C)(C)C)cc2)CCCCC1	3.0%	20.2%	2.0%	1.0%[59 µM]	-6.2%
Cc1ccc(C2(c3noc(CN4CCC(c5ccncc5)CC4)n3)CCCC2)cc1	-6.0%	7.5%	-7.0%	-34.9%	?
CN(C)c1ncc2nc(-c3ccccc3)c(=O)n(Cc3cccs3)c2n1	-1.4%[60.1 µM]	.	-3.1%	-4.2%[0.501 µM]	.
Cc1cc2c(cc1S(=O)(=O)CCC(=O)Nc1cccc(C(F)(F)F)c1)OCC(=O)N2	-4.2%	5.6%	-2.6%	13.1%[0.0925 µM]	-4.7%
O=C(O)c1c2c(nc3ccccc13)/C(=C/c1ccc(O)cc1)CCC2	3.9%	-3.3%	0.6%	-6.8%	-8.6%
Cc1cc(C)c(C#N)c(N2CCN(C(=O)C3COc4ccccc4O3)CC2)n1 (configuration not stated)	-3.2%	25.8%	.	16.4%[2.33 µM]	.
OCC(O)[C@@H](O[C@H]1O[C@H](CO)[C@@H](O)[C@H](O)[C@H]1O)[C@H](O)[C@@H](O)CO (some centres not stated)	-3.5%	-23.1%	.	11.5%[59 µM]	.
COCCNc1nc(-c2ccccc2Cl)nc2ccccc12	7.9%[60.1 µM]	.	-2.1%	16.2%[0.501 µM]	.
Cc1nc2cc(NC(=O)NCCC3=CCCCC3)ccc2o1	7.5%	89.1µM*	-1.3%	9.4%[59 µM]	0.1%
O=c1c2ccccc2nc2c3ccccc3c(NCc3ccccn3)nn12	-11.0%	17.0%	-6.2%	31.6µM*	-4.1%
CCNC(=O)c1c(NC(=O)C2COc3ccccc3O2)sc2c1CCCC2 (configuration not stated)	-21.1%	16.3%	-2.4%	-4.0%[59 µM]	-8.6%
CCCc1cc(=O)[nH]c(SCC(=O)Nc2ccc(OCc3ccccc3)cc2)n1	-20.1%	-3.0%	.	14.4%[2.33 µM]	.
O=C1C=C(NCc2ccccc2)CCC1	12.2%	67.5%[activator]	-0.9%	10.7%	-10.0%
CCN(CC)CCN(C(=O)/C=C/c1cccs1)c1nc2ccc(Cl)cc2s1	-28.6%	9.6%	-1.8%	.	-2.1%
OC[C@@H](O)C(O[C@@H]1O[C@@H](CO)[C@H](O)[C@H](O)[C@H]1O)[C@H](O)[C@@H](O)CO (some centres not stated)	-8.4%[60.1 µM]	.	4.5%	23.9%[59 µM]	.
C=CCn1c(SCC(=O)Nc2ccccc2F)nnc1C(C)NC(=O)c1ccccc1F (configuration not stated)	-0.4%	37.8%[activator]	5.2%	.	-5.0%
C=CCn1c(CCNC(=O)c2ccccc2F)nnc1SCC(=O)Nc1ccc(OC)cc1	0.3%	137.4%[activator]	-1.1%	.	-2.1%
O=C(C1CCCCC1)N1CC(=O)N2CCc3ccccc3[C@@H]2C1	-7.5%[12 µM]	.	-0.5%	5.5%[12.7 µM]	0.2%[29.3 µM]
Cc1cccc(CNc2nc(-c3c(C)noc3C)nc3ccccc23)c1	-17.5%[60.1 µM]	.	-7.4%	.	-6.2%
O=C1Nc2ccccc2/C1=C/C(=O)c1cccs1	-5.6%	-8.7%	-5.2%	?	?
COC(=O)c1ccc2c(c1)N(Cc1nc(-c3cccc(C)c3)oc1C)C(=O)C1CCCN21 (configuration not stated)	.	.	-4.1%	?	?
c1ccc(Nc2cccc3ccccc23)cc1	1.8%	7.8%	.	.	.
CCOC(=O)C1=NN(c2ccc(OC)cc2)C2C(=O)N(c3ccccc3OC)C(=O)C12 (configuration not stated)	-14.5%	119.4%[activator]	-6.1%	.	54.9%[activator]
CN(C)S(=O)(=O)c1ccc(Cl)c(NC(=O)COc2ccccc2[N+](=O)[O-])c1	-3.3%	18.0%	-4.9%	3.4%[59 µM]	-5.2%
CC(C)c1ccc(NS(=O)(=O)c2ccc3[nH]cc(C(=O)N4CCC(C(N)=O)CC4)c(=O)c3c2)cc1	-8.9%	?	2.9%	.	-13.4%
COc1ccc(C(=O)/C=C2/C(=O)Nc3ccccc32)cc1	-7.9%[60.1 µM]	?	-5.2%	-12.3%	1.8%
CN(C)CCCN(C(=O)c1ccco1)c1nc2ccc(Br)cc2s1	0.3%	18.0%	84.4%[activator]	?	-9.7%
CC(=O)O[C@H]1c2ccccc2-c2ccccc2[C@@H]1OC(C)=O	-6.9%	-3.8%	-3.7%	.	-8.5%
O=C(O)CN1C(=O)SC(Nc2ccc(Cl)cc2)C1=O (configuration not stated)	2.3%	3.5%	-1.1%	-4.8%	4.1%
O=S(=O)(NCc1ccc2c(c1)OCO2)c1ccccc1F	6.3%	28.2%	-9.3%	.	-13.3%
CN(CC(=O)Nc1ccc(Cl)c(C(F)(F)F)c1)C(=O)c1cccnc1Sc1ccccc1	-13.9%	-4.0%	-10.3%	14.9%	?
COc1ccc(CNc2ncncc2-c2ccccc2C(F)(F)F)c(OC)c1	-1.5%[60.1 µM]	.	5.9%	2.2%[0.501 µM]	.
COCCn1c(=O)c(-c2cc(F)cc(F)c2)nc2cnc(Oc3ccccc3)nc21	-4.5%[60.1 µM]	.	-6.5%	-1.2%[12.7 µM]	.
CCOc1cc(/C=C(/C#N)C(=O)Nc2ccc(O)cc2)cc(Br)c1O	-13.0%	-12.0%	-6.2%	50.1µM*	-2.5%
COc1ccccc1CNc1cncnc1	0.2%	57.5%[activator]	-7.1%	?	-5.5%
O=C(/C=C/c1ccccc1Cl)NCc1ccccc1	-12.2%	-12.6%	-1.6%	34.8%[0.501 µM]	-20.0%
O=C(CCNC(=O)c1ccccc1Cl)NCc1ccco1	-5.4%	?	.	4.0%[12.7 µM]	.
Cc1cccc(NS(=O)(=O)c2ccc(C(=O)N3CCCCCC3)cc2)c1C	7.4%	0.4%	.	-6.4%	.
FC(F)(F)c1ccccc1-c1cncnc1NCc1cccs1	-5.8%[60.1 µM]	.	-1.0%	22.3%[0.501 µM]	.
O=C(Oc1ccc(/C=N/NC(=O)c2ccccc2F)cc1)c1ccccc1	-6.1%	-4.5%	-11.2%	.	-2.0%
CN(C)CCN(C(=O)C1CCCCC1)c1nc2cc3c(cc2s1)OCO3	10.0%	6.4%	37.7%[activator]	70.8µM*	-15.0%
O=C(O)C1C2C=CC(C2)C1C(=O)Nc1ccccc1Br (configuration not stated)	-3.5%	-11.1%	-1.9%	.	?
O=C(Nc1ccccc1)C1CCCN1S(=O)(=O)c1ccc(Br)cc1 (configuration not stated)	-17.8%	0.2%	-3.7%	.	-7.5%
Cc1cc2nc(CN(C)Cc3c(C(=O)N(C)C)nc4ccc(Cl)cn34)[nH]c2cc1C	-5.1%	16.9%	-5.2%	11.3%	-9.2%
COCCS(=O)(=O)N(Cc1ccccc1)[C@H](C(=O)OC)C(C)C	0.5%	-13.0%	.	.	.
Cc1no[n+]([O-])c1COc1ccc(/C=N/n2nnnc2N)cc1	-0.3%	12.8%	2.4%	6.2%[59 µM]	-12.8%
COc1ccccc1CNc1nc(-c2c(C)noc2C)nc2ccccc12	-6.8%[60.1 µM]	.	-6.6%	-6.9%[0.501 µM]	.
CCN1CCN(c2cc3c(cc2F)c(=O)c(C(=O)O)cn3C2CC2)CC1	-4.7%	-7.6%	-3.9%&5.8%	31.6µM*	1.8%
Cn1c(SCC(=O)c2ccc(-c3ccccc3)cc2)nnc1-c1ccco1	-11.7%	?	-1.5%	?	?
O=c1c2ccccc2nc2c3ccccc3c(Cl)nn12	.	.	1.2%	32.7%	-5.5%
Cc1ccc(CSc2nc(N)cc(=O)[nH]2)cc1	-2.8%	-16.0%	-0.8%	21.4%	-14.7%
Cc1cc2oc(C(=O)NCc3ccncc3)c(C)c2cc1C	7.9%	18.1%	-4.7%	?	?
CCN(c1ccccc1)S(=O)(=O)c1ccc(Cl)c(NC(=O)COC(=O)C2CC2C)c1 (configuration not stated)	-12.4%	26.4%	-8.0%	7.1%	-7.2%
N#C/C(=C/c1ccc(OCc2ccc(C(=O)O)cc2)cc1)C(=O)Nc1ccccc1	4.0%	10.5%	-4.8%	50.1µM*	2.3%
CCOc1cc(/C=C2\CCCc3c2nc2ccccc2c3C(=O)O)ccc1OC	-23.1%	?	-2.4%	?	338.4%[activator]
COc1cccc(CNC(=O)CCS(=O)(=O)c2cc3c(cc2C)NC(=O)CO3)c1	14.1%&-4.3%	32.5%&18.7%	0.6%&-0.7%	7.5%	-11.2%&134.6%
Cc1cc(=O)oc2cc(OCC(=O)OCC(=O)Nc3ccccc3F)ccc12	4.9%	33.7%[activator]	3.9%	?	?
COc1ccc(/C=C2\N=C(C)N(c3ccc4ccccc4c3)C2=O)cc1OC	0.7%	68.4%[activator]	0.3%	19.1%[59 µM]	0.5%
O=C(Cc1ccccc1[N+](=O)[O-])Nc1cccc(S(=O)(=O)NC2=NCCCCC2)c1	-5.1%	21.2%	.	12.5%	.
COc1ccc(CC(=O)Nc2ccc(-c3noc(-c4cccc(OC)c4)n3)cc2)cc1	-9.4%	7.6%	-4.3%	16.8%	-9.1%
Next part.
SMILES	Pol kappa inh	POLI inh	BLM inh	G9a inh	Apoferritin bind
CCC(=O)c1ccccc1OCCN1CCN(Cc2ccccc2)CC1	-17.8%	95.9%[activator]	4.0%	.	-9.2%
Cc1cc(C)cc(OC(C)C(=O)Nc2ccc3c(c2)n(C)c(=O)n3C)c1 (configuration not stated)	-23.0%	?	-2.9%	.	-6.7%
CCOc1ccccc1/C=C(\C#N)C(=O)Nc1cccc(C(=O)O)c1	2.5%	?	-3.5%	4.5%[12.7 µM]	-8.0%
Cc1noc(C)c1-c1nc(NCc2cccs2)c2ccccc2n1	?	.	-2.4%	-46.0%[0.501 µM]	.
COc1ccc(/C=N/Nc2nc(C)cc(-c3ccccc3)n2)cc1OC	-11.1%	19.4%	-8.9%	6.0%	-14.9%
N#C/C(=C\c1ccc(OCc2ccc(Br)cc2)cc1)C(=O)Nc1cccc(C(=O)O)c1	-4.5%	115.0%[activator]	-24.0%	?	-18.6%
CN1C(=O)N(C)C2C1N(C)S(=O)(=O)N2C (configuration not stated)	0.3%	8.2%	-1.1%	22.1%[59 µM]	-17.7%
CC1CN(c2ccc(Cl)cc2)c2nc3c(c(=O)[nH]c(=O)n3C)n2C1 (configuration not stated)	-16.7%	20.8%	1.5%	49.5%	6.5%
Cc1ccccc1OCCn1ccnc1	-2.8%	2.8%	-1.7%	?	-14.5%
Brc1cccc(OCCn2ccnc2)c1	13.1%	-4.1%	-1.8%	8.91µM*	-23.3%
CCN(CC)C(=S)NC(=O)c1ccc(Cl)cc1Cl	-2.4%	32.2%[activator]	0.0%	25.4%[12.7 µM]	-5.7%
COc1ccc(S(=O)(=O)N2CCN(C(=O)[C@@H]3CCC(=O)N3C3OC(=O)c4ccccc43)CC2)cc1 (some centres not stated)	-13.6%	16.3%	0.4%	6.9%	-13.6%
NS(=O)(=O)c1ccc(NC(=O)CSc2nnc(COc3ccccc3Cl)n2C2CC2)cc1	-13.5%	?	-1.3%	?	-18.8%
CN(Cc1ccco1)C(=O)Cn1nc(-c2ccc(Cl)cc2)ccc1=O	-15.5%	1.4%	-0.7%	?	?
O=C(/C=C/c1ccc(S(=O)(=O)NCc2ccco2)cc1)NCc1ccccc1Cl	-8.4%	-2.5%	-6.5%	-24.8%	-9.6%

At a glance, part of the list above:
SMILES	Pol kappa inh	POLI inh	BLM inh	G9a inh	Apoferritin bind
COc1ccc(S(=O)(=O)N2CCN(C(=O)[C@@H]3CCC(=O)N3C3OC(=O)c4ccccc43)CC2)cc1 (some centres not stated)	-13.6%	16.3%	0.4%	6.9%	-13.6%
NS(=O)(=O)c1ccc(NC(=O)CSc2nnc(COc3ccccc3Cl)n2C2CC2)cc1	-13.5%	?	-1.3%	?	-18.8%
CN(Cc1ccco1)C(=O)Cn1nc(-c2ccc(Cl)cc2)ccc1=O	-15.5%	1.4%	-0.7%	?	?
O=C(/C=C/c1ccc(S(=O)(=O)NCc2ccco2)cc1)NCc1ccccc1Cl	-8.4%	-2.5%	-6.5%	-24.8%	-9.6%
